# Bioassay records: PubChem BioAssay, ICCB-Longwood Screening Facility, Harvard Medical School
# GIV Gai3 FP = GIV-Galpha-i interaction inhibition; AID 1224905; percent of control (FP), % (concentration not given with the values); Galpha-i3/FITC-GIV peptide fluorescence polarization, 90 min; hits give low values; scaled: aluminum fluoride 0%, vehicle 100%; 210,000 tested, 0.42% active;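 active = replicate mean at 85% of control or lower, very high polarization wells dropped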;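 note: wells of about 15 µL received 100 nL stock; the first replicate is given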
# Target sequence (P08753 whole entry, looked up): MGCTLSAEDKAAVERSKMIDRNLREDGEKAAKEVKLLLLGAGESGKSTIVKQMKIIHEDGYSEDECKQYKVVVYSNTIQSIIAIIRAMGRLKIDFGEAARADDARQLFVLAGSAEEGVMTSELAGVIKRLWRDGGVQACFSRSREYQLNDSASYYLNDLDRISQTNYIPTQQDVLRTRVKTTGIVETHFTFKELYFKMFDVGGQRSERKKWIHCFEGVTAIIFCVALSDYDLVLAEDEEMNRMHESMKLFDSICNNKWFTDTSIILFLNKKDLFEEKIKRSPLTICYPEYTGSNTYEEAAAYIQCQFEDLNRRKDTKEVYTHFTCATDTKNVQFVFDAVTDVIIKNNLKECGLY
# HCMV UL50-53 inh = disrupts HCMV UL50-UL53 complex binding; HTRF UL50-UL53 interaction, normalized percent inhibition; inhibition, % (test concentration not listed); AID 1918969; 190,000 tested, 0.15% active;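 active = both replicates at 50% or more, plus weaker picks with an unusually low signal ratio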;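 note: stock transfer was 100 nL into about 20 µL; 0% = negative control wells and 100% = wells with untagged competitor protein; inactives centre near -12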
# Sa growth inh = inhibitors of Staphylococcus aureus growth at 42 °C; S. aureus RN4220 growth, OD600, 20 h; hits give low values; relative growth, % (test concentration not listed); 170,000 tested, 0.53% active;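 active = growth at 42 °C up to 50% and 20 or more points under that at 30 °C, or under 10% at both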;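 note: 300 nL library stock went into each well; scaled to the means of positive and negative controls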
# Sa growth inh second temp = further read-out of Sa growth inh, marked with its call; relative growth, %; measured here: growth at 30 °C;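 optical density after 20 h as mean of two plates; 100% = untreated growth and lower means inhibition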
# Numbers without * were called inactive; · = not tested or not shown; & = joins results of further samples.
SMILES,GIV Gai3 FP,HCMV UL50-53 inh,Sa growth inh,Sa growth inh second temp
Cc1ccc(NC(=O)N2CC3CCCN3c3ccccc32)c(C)c1 (stereo not drawn),109,·,93,84
COc1ccccc1OCC(=O)NC1CCCCC1,·,-25,101,90
Cc1ccc(N2CCN(C(=O)c3cn(C)c4ccc(S(=O)(=O)N(C)C)cc4c3=O)CC2C)cc1 (stereo not drawn),106,2,88,102
CCCOc1ccccc1C1NC(=O)NC(C)=C1C(=O)OCC(F)(F)C(F)(F)F (stereo not drawn),97,-8,·,·
CCCN(CCC)CCCn1cnc2c([nH]c3ccc(F)cc32)c1=O,98,·,94,64
COC(=O)n1c(=O)oc2cc(Cl)ccc21,95,-19,88,78
CCCn1c(=O)c2ccc(C(=O)NC(C)C)cc2n2c(=O)n(CC(=O)NC(C)CC)nc12 (stereo not drawn),110,-45,·,·
Cn1c(=O)n(C)c2cc(CNc3ccc(N4CCOCC4)c(C(=O)O)c3)ccc21,102,-10,98,87
CCNC(=O)c1cc2c(=O)n3ccccc3nc2nc1NCCCN1CCOCC1,110,-85,87,96
CCOc1ccc(C2CNC(=O)C2)cc1 (stereo not drawn),108,8,98,107
O=C(CC1COc2ccccc2O1)Oc1ccccc1 (stereo not drawn),·,11,109,106
N/C(=N\OC(=O)CN1C(=O)c2ccccc2C1=O)c1ccccn1,103,-17,105,103
Cc1ccccc1S(=O)(=O)Cc1ccc(C(=O)NC2CCCCC2)o1,106,-5,85,98
Clc1ccc(-c2cnc3ccccc3n2)cc1,112,-32,90,81
CCOc1ccccc1CNC(=O)C1CCN(c2nc3ccccc3nc2C(F)(F)F)CC1,105,·,89,87
CC(=O)ON1C(c2ccccc2)[N+]([O-])=C(c2ccccc2)C1(C)C (stereo not drawn),105,-18,96,110
O=c1c2ccccc2c(=O)c2c1c(NC1CCCCC1)cc1oc3cc(Cl)ccc3[nH]c12,102,-7,·,·
CCOC(=O)C1CCN(S(=O)(=O)c2cnc[nH]2)CC1,105,-31,92,84
CCOc1ccc(CN2C(=O)c3ccccc3Sc3ccc(C(=O)OC)cc32)cc1,102&107,·,108,84
CCOC(=O)c1cc2ccccc2[nH]c1=O,106,-39,87,87
COC(=O)C1=C(N)Oc2c(oc(CO)cc2=O)C1c1ccccc1 (stereo not drawn),99,·,95,87
Cc1nnc(NC(=O)CCc2nc(-c3ccc(C)n(C(C)C)c3=O)no2)s1,103,-21,·,·
Cc1ccc(C(=O)OCC(=O)c2cc(C)n(CC3COc4ccccc4O3)c2C)s1 (stereo not drawn),·,-15,90,99
Cc1nc2ccccc2c2c1C(=O)N(C1CCCCCCC1)C2=O,97,-18,89,83
CCOC(=O)c1c(NC(=O)c2cc(C)on2)sc(C)c1C,106,-10,96,90
CC(NCCn1cnc2c(N)ncnc21)c1ccccc1 (stereo not drawn),92,36,87,78
CCCCNc1ncc2cc3ccccc3nc2c1C#N,89,-22,93,87
C[C@@H]1[C@@H](c2ccc(F)c(Br)c2)N2C=Cc3ccccc3[C@@H]2C1(C#N)C#N,·,-36,72,45
CC(=O)NCC(c1ccccc1)c1ccccc1,·,6,86,104
CCc1cccc(CC)c1-n1nnc2c(sc3nc(C)cc(C)c32)c1=O,106,-30,109,92
COc1ccc(/C=C/C#N)cc1,·,-58,98,87
CC(C)COc1ccc(C(=O)OCCN2CCOCC2)cc1,103,-12,108,75
COc1ccc(-c2cc(-c3nc(-c4cccnc4)no3)[nH]n2)cc1,104,-17,119,90
Cc1nc2ccccc2cc1C(N)=O,·,-6,104,90
c1ccc(CNc2nn3nnnc3c3ccccc23)nc1,96,-4,·,·
O=C(COC(=O)Cn1cnc2ccccc21)NCc1ccccc1,·,-1,99,90
CC(C)C[C@H](N)c1nnc(SCc2ccc(Cl)cc2Cl)o1,108,-25,110,84
O=C(c1ccc2c(c1)OCCCO2)N1CCOCC1,99&104,-32,92,89
COc1ccc(-c2nc(SCCC(=O)O)n[nH]2)cc1,97,5,99,101
O=C(Cn1nc(Cc2ccncc2)c2ccccc2c1=O)N1CC=C(c2ccccc2)CC1,105,-22,·,·

# One compound at a time, from the list above. Order of values: GIV Gai3 FP | HCMV UL50-53 inh | Sa growth inh | Sa growth inh second temp
# O=C(COC(=O)Cn1cnc2ccccc21)NCc1ccccc1 in the list: · | -1 | 99 | 90
# COc1ccc(/C=C/C#N)cc1 in the list: · | -58 | 98 | 87
# O=C(Cn1nc(Cc2ccncc2)c2ccccc2c1=O)N1CC=C(c2ccccc2)CC1 in the list: 105 | -22 | · | ·
# COc1ccc(-c2nc(SCCC(=O)O)n[nH]2)cc1 in the list: 97 | 5 | 99 | 101

# Given with each value named: four of the compounds above.
> Cc1nc2ccccc2cc1C(N)=O
  GIV Gai3 FP = ·	HCMV UL50-53 inh = -6	Sa growth inh = 104	Sa growth inh second temp = 90
> c1ccc(CNc2nn3nnnc3c3ccccc23)nc1
  GIV Gai3 FP = 96	HCMV UL50-53 inh = -4	Sa growth inh = ·	Sa growth inh second temp = ·
> O=C(COC(=O)Cn1cnc2ccccc21)NCc1ccccc1
  GIV Gai3 FP = ·	HCMV UL50-53 inh = -1	Sa growth inh = 99	Sa growth inh second temp = 90
> CC(C)C[C@H](N)c1nnc(SCc2ccc(Cl)cc2Cl)o1
  GIV Gai3 FP = 108	HCMV UL50-53 inh = -25	Sa growth inh = 110	Sa growth inh second temp = 84

# Other entries.
SMILES,GIV Gai3 FP,HCMV UL50-53 inh,Sa growth inh,Sa growth inh second temp
Cc1ccc(C2CC(=O)N(c3ccc(F)c(F)c3)C(=O)C2)cc1,104,-17,·,·
NS(=O)(=O)c1ccc(NC(=O)CN2C(=O)c3ccccc3C2=O)cc1,102,·,78,103
N#CC(Nc1cc(C(F)(F)F)cc(C(F)(F)F)c1)c1ccccc1 (stereo not drawn),105,1,72,80
CN1C(=O)C(Cc2nc3ccccc3c(=O)n2-c2ccccc2)c2cc(Br)ccc21 (stereo not drawn),107,-1,99,88
O=c1[nH]n(CC2COC(c3ccccc3)O2)c(=O)c2ccccc12 (stereo not drawn),104,-10,114,99
O=C(O)c1ccc(NCc2nc3ccccc3n2Cc2ccccc2F)cc1,105,2,·,·
COC(=O)/C=C1/OC(c2ccc(OC)cc2)=CC1=O,110,-3,105,98
CN1CCC(NC(=O)CCCc2ccccc2)CC1,107,-4,112,101
CCOC(=O)c1cc(-c2ccc(OC)c(S(=O)(=O)NC3CCCCC3)c2)on1,105,·,112,91
Cc1ccc2[nH]c(O)c(N=NC(=O)c3cccc(O)c3)c2c1,97,-18,118,114
CCOC(=O)c1ccc(NC(=O)Cn2cc(S(=O)(=O)Cc3ccccc3)c3ccccc32)cc1,121,-6,·,·
Cc1nc2nc3[nH]c4ccccc4c3nn2n1,107,-73,93,84
CC1CN(C(=O)c2cc(S(=O)(=O)N3CCCC3)ccc2Cl)CC(C)O1 (stereo not drawn),102,1,92,99
NCCNC(=O)c1ccc(/C=N/O)nc1,104,-2,78,87
c1csc(-c2nc(-c3ccc(-c4ccon4)s3)no2)c1,98,5,109,76
CCOC(=O)c1ccc(NC(=O)c2cccc3c(=O)c4c([nH]c23)CCCC4)cc1,102,-14,111,104
CC(C)N(C(=O)NC(=O)Nc1ccc(C=C(C#N)C#N)cc1)S(C)(=O)=O,·,-42,99,92
COCn1c(COc2ccc3ccccc3c2)nc2ccccc21,97,·,107,84
CC(C)(Oc1ccc(Cl)cc1)C(=O)N1CCN(c2ccc(C(F)(F)F)cn2)CC1,·,-12,109,91
CCOC(=O)c1c(CCc2ccc3c(c2)OCO3)csc1N,·,-8,89,95
CCOC(=O)c1c(N(C)S(C)(=O)=O)sc(C)c1C,105,-2,91,87
O=c1cc(-c2ccccc2)nc(N2CCCCC2)[nH]1,101,-15,·,·
COc1ccc(OCCn2cc(C(=O)C3CCCCC3)c3ccccc32)cc1,100,-34,79,86
O=C(Cn1cnc2c(cnn2-c2ccccc2)c1=O)NCCc1ccccc1,100,-3,105,102
O=C1CSc2ccc(C(F)(F)F)cc2N1,·,-7,113,91
Cc1onc(-c2c(F)cccc2Cl)c1C(=O)Nc1ccccc1N1CCOCC1,104,-24,80,83
Cc1ccc(CNC(=O)c2sc3nc(-c4ccc(F)cc4)ccc3c2N)cc1,103,-5,94,102
CCOc1ccc(N2C(=O)N(Cc3ccc(C)cc3C)c3ccccc3S2(=O)=O)cc1,101,·,117,109
CC(C)(C)c1ccc(OCCOc2ccc(C=C3C(=O)NC(=S)NC3=O)cc2)cc1,95,-42,·,·
NS(=O)(=O)c1ccc(NC(=O)c2cc(-c3ccccc3)nc3ccccc23)cc1,102,1,·,·
COc1cc(/C=C2\N=C(c3cc([N+](=O)[O-])ccc3Cl)OC2=O)cc(OC)c1OC,101,-11,·,·
Cn1cnc(S(=O)(=O)N2CCCC(C(=O)NCc3ccc(Cl)cc3)C2)c1 (stereo not drawn),97&108,-25,86,90
Cc1cc(=O)[nH]c(SCC(=O)N2CCN(c3ccccc3)CC2)n1,106,-22,109,86
CCCC(=O)OC1=CN(Cc2ccccc2)S(=O)(=O)c2ccccc21,98,-4,104,86
CN(C)C(=O)c1ccc2c(c1)nc(CN(C)S(=O)(=O)c1cc(F)cc(F)c1)n2C,108,20,·,·
CC1CN(C(=S)SCC(=O)c2ccccc2)CC(C)O1 (stereo not drawn),94,·,114,91
CC1(C)C(C(=O)ON2C(=O)CCC2=O)C1(C)C,99,3,101,108
CCc1ccccc1N(C)C(=O)Cn1cnc2sc(C)c(S(=O)(=O)N3CCC(C)CC3)c2c1=O,99,7,96,95
Cn1nc(-c2ccc(Cl)cc2)cc1NC(=O)Cn1nnc(-c2ccccc2)n1,·,-15,77,96
COC(=O)C1=C(Nc2ccccc2NC(=O)COCC(=O)O)CSC1,99,-22,103,91
CCOC(=O)c1ccc2c(c1)N(Cc1ccc(C)cc1)C(=O)c1ccccc1S2(=O)=O,102,-8,·,·
Cc1ccc(C(=O)N2CCN(Sc3ncnc4sccc34)CC2)cc1,97,-18,86,83
Nc1ccccc1C(=O)NCCN1CCNC1=O,100,-22,96,87
Cc1ccc(F)cc1NC(=O)c1ccc(Cn2nc(N3CCN(c4ccccc4)CC3)ccc2=O)o1,110,·,82,92
CCCCn1c(Cc2ccccc2)nc2ccccc21,110,·,92,67
O=C(CSc1ncc(-c2ccc(F)cc2)n1Cc1ccco1)OC1CCCCC1,98,1,104,72
CC(=O)NC(=O)c1cc2ccccc2oc1=Nc1ccc(C(F)(F)F)cc1,96,·,99,94
Cc1ccc(S(=O)(=O)N(CC(=O)NCc2ccncc2)c2ccc(Cl)c(C(F)(F)F)c2)cc1,102,-6,·,·
COc1ccccc1CNc1nc(-c2ccco2)nn1S(=O)(=O)c1ccc(Cl)cc1,107,1,111,91
Cc1nn(-c2ccc(N3CCCC3)nn2)c(C)c1CCC(=O)N1CCN(c2ccccc2F)CC1,98,·,77,90
# (cont.)
SMILES,GIV Gai3 FP,HCMV UL50-53 inh,Sa growth inh,Sa growth inh second temp
Cc1ccc(/C=C/c2onc(C)c2S(=O)(=O)N2CCC(C(=O)NCc3ccco3)CC2)cc1,102,·,106,97
Cc1cc(C)cc(OCC(O)CN2CCN(C(=O)c3ccco3)CC2)c1 (stereo not drawn),·,0,104,90
O=C(CC1C(=O)NCCN1C(=O)c1ccccc1)Nc1ccc(F)cc1 (stereo not drawn),106,-23,95,90
CCc1nn(CC(=O)NC(C)C)c(=O)c2cc3cc(F)ccc3n12,100,-41,106,85
COc1ccccc1CNC(=O)Cn1c(=O)ccc2cc(S(=O)(=O)N3CCC(C)CC3)ccc21,98,·,108,84
CCSc1nnc(-c2cccc(S(=O)(=O)N3CCOCC3)c2)n1C1CCCC1,·,-7,88,92
COc1ccc(N2CCN(C3OC(=O)c4ccccc43)CC2)cc1 (stereo not drawn),100,2,96,84
CN(C)c1ccc(NC(=O)c2ccccn2)cc1,·,-9,84,91
